Source: PubChem BioAssay
VDR inh – vitamin D3 receptor (human) inhibition | P11473 | VDR-SRC2-3 peptide fluorescence polarization, 2 h | Potency, µM, for inactives: max response, negative = inhibition, hits mostly inhibitors | actives 0.93% (n = 400,000) | AID 504847; active = well fitted inhibition curve with a large enough effect; inconclusive = small, poorly fitted or top-dose-only effect, or another doubt; inactive = no such curve, though single readings can be large or run the other way; note: series mostly up to about 120 µM
Target sequence (P11473 whole entry, looked up): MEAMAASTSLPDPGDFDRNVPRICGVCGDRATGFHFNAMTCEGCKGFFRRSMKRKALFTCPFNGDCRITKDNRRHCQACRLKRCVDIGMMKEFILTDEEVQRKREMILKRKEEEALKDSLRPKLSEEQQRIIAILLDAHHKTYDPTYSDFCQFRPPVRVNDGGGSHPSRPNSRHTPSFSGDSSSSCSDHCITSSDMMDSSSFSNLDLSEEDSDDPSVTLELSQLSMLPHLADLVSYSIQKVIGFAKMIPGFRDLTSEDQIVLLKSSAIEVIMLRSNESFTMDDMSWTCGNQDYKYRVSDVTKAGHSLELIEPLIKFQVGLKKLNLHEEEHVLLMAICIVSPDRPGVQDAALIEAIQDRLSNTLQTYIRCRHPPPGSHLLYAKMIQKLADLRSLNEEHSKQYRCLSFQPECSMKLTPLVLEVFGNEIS
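The screen uses fluorescence polarization to detect compounds that interfere with recruitment of the SRC2-3 coactivator peptide to VDR; plates are read after 2 h at room temperature.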
Active calls of the source: *; ? = inconclusive; & = joins results of further samples. % is set by controls: 0 for no effect and ±100 for the full control effect; potency is the fitted concentration of half-maximal effect.

SMILES	VDR inh
O=C(O)C1C2CCC(O2)C1C(=O)Nc1cccc(Cl)c1 (configuration not stated)	-9%
Cc1c(C)n(C(=O)CSc2nc3ccccc3[nH]2)c2ccccc12	-9%
CCOC(=O)C1=C(O)CSC1=Nc1ccc(C)cc1	6%
Cc1ccc(-n2nc(CO)c(C(=O)NCCCCc3ccccc3)n2)cc1C	3%
COc1cc(NC(=S)NCCCN(C)C)c(OC)cc1NC(=O)c1ccco1	-7%
O=C(O)C1C2CC2CN1C(=O)c1ccc(Cl)cc1Cl (configuration not stated)	-6%
COc1cccc(CC(=O)Nc2ccccc2C(=O)N2CCOCC2)c1	7%
COC(=O)N1CCC2(CCN(Cc3nccs3)CC2)CC1	12%
CCc1cccc(NS(=O)(=O)c2c(C)[nH]c(=O)[nH]c2=O)c1	1%&-3%
COc1ccc(OC)c(NC(=O)c2oc3c(c2C)-c2nn(Cc4ccc(Cl)cc4)cc2CC3)c1	9%
CCOC(=O)C1=C(C)NC(=O)NC1c1ccc(N(C)C)cc1 (configuration not stated)	3%
CC1CCN(S(=O)(=O)c2cccc(C(=O)NC3CCCCC3)c2)CC1	-12%
O=C(O)CCCC(=O)NCc1c(Cl)cccc1Sc1ccc(Cl)cc1	7%
CC1(C)S[C@H]2C(NC(=O)[C@@H](N)c3ccc(O)cc3)C(=O)N2[C@@H]1C(=O)O (some centres not stated)	1%
COc1cccc(NC(=O)CC2(CC(=O)O)CCCC2)c1	0%
COc1cccc(N2C(=O)[C@H]3C(C(=O)c4cnccn4)=NN[C@H]3C2=O)c1	-17%
COc1cccc(CNC(=O)c2ccc(NC(=O)C3=CSCCO3)cc2)c1	7%
CCOc1cc(C(=O)NC(C)COC)cc(OCC)c1OCC (configuration not stated)	1%
Cc1nn(CC(=O)NC(C)c2ccccc2)c(C)c1[N+](=O)[O-] (configuration not stated)	-20%
O=C(Cc1ccc(Cl)cc1)NC1CCCN(Cc2ccccc2F)C1 (configuration not stated)	2%
CCOc1ccccc1C(=O)NCC(=O)OCCOc1cccc(Cl)c1	0%
CC(C)(C)c1nnc(NC(=O)c2ccc3c(c2)OCO3)s1	79µM*
Cc1ccc(Sc2nc(-c3ccccc3)ccc2C#N)cc1	5%
C[C@H](NC(=O)OC(C)(C)C)c1nnc(SCC(N)=O)o1	1%
CCC(C)(C)n1nnnc1C(C(C)C)N1CCSCC1 (configuration not stated)	3%
Cc1ccc(NS(=O)(=O)c2ccccc2[N+](=O)[O-])cc1C	19%
COc1cccc(C2SCC(=O)N2c2cccc(C)c2)c1OC (configuration not stated)	-16%
CN(Cc1c(C(=O)N/N=C/c2cccs2)nnn1-c1nonc1N)c1ccccc1	-6%
O=C(NCc1ccco1)C(c1cccs1)N(C(=O)C1COc2ccccc2O1)c1cccc(O)c1 (configuration not stated)	-8%
C[C@@H](C(=O)O)c1ccc(N2Cc3ccccc3C2=O)cc1	8%
COc1ccc(C(=O)COC(=O)CNC(=O)c2cccc(OC(F)F)c2)cc1	8%
CCC(CC)C(=O)c1c[nH]c(C(=O)N2CCN(c3ccc(OC)cc3)CC2)c1	-9%
CCOc1ccc(/C=C/C2=NNC(=O)CC2)cc1	7%
CC1CCN(CCCn2c(=S)[nH]c3ccc(N4CCOCC4)cc3c2=O)CC1	0%
COc1ccc(NC(=O)CSc2ccc3c4c(cccc24)C(=O)c2ccccc2-3)cc1	-3%
CCC(=O)N1CCc2cc(S(=O)(=O)Nc3ccccc3C)ccc21	-5%
O=C(CNS(=O)(=O)c1ccccc1Br)OCC(=O)N1CCc2ccccc21	-1%
O=C1CC(c2cccc(O)c2)c2c(nc(SCc3ccccc3F)[nH]c2=O)N1 (configuration not stated)	16%
CCc1ccc(/C=C/c2c([N+](=O)[O-])c(=O)n(C)c(=O)n2C)cc1	-9%
COc1cc(CCC(=O)NNC(=O)c2ccc(Cl)cc2)cc(OC)c1OC	-5%
CC(C)(C)c1ccc(S(=O)(=O)c2cnc(SCC(=O)Nc3ccc4c(c3)OCCO4)[nH]c2=O)cc1	0%
Cc1ccc(NC(=O)CN2CCC(C(=O)c3ccc4c(c3)OCCO4)CC2)cc1	-8%
O=C(Nc1ccccc1C(=O)Nc1ccncc1)c1ccccc1	-5%
Cc1cccc(C)c1Nc1c(-c2ccccn2)nc2ccccn12	-5%
CCc1ccc(C2c3c(-c4ccccc4O)n[nH]c3C(=O)N2Cc2cccnc2)cc1 (configuration not stated)	9%
CC(C)Cn1cnc2c(SCc3ccc(Cl)cc3)nc(N)nc21	-10%
CCCCC1(C)NC(=S)N2N1C(=S)NC2(C)CCCC (configuration not stated)	79µM*
CCOc1ccc(-c2cc(C(=O)OC)nc3c2c(=O)n(C)c(=O)n3C)cc1	2%
CCOc1ccccc1OCC(=O)Oc1ccc(C)c(C)c1	5%
COC(=O)[C@@H](Cc1c[nH]c2ccccc12)NC(=O)C1CCCN(S(=O)(=O)c2ccc(C)cc2)C1 (some centres not stated)	-5%
Cc1ccc(-n2c(NN)nc3ccccc3c2=O)c(C)c1	1%
Cc1cccc(C(=O)NCC(=O)N2CCCC2)c1	3%
CCOC(=O)c1ccc(N2C(=O)c3n[nH]c(C)c3C2c2ccccn2)cc1 (configuration not stated)	2%
C[C@H](NC(=O)CCCn1nnc2ccccc2c1=O)C(=O)O	-7%
C(=N\Nc1nc(-c2ccccn2)nc2ccccc12)/c1ccccc1	-23%
N#CCCCSc1nnnn1-c1cc(C(F)(F)F)cc(C(F)(F)F)c1	3%
Cc1ccc(-c2noc(CCCC(=O)NC3CCCCC3)n2)cc1	-2%
O=C(c1cccc(F)c1)N1CCC2(CCCN(c3ccccc3)C2)CC1	?
Cc1oc2ncnc(N3CCOCC3)c2c1C(=O)NCc1ccc(Cl)cc1	14%
N#C/C(=C\c1cc(O)c(O)c(O)c1)C(N)=O	-11%

Next structures follow:
SMILES	VDR inh
Cc1cc(NC(=O)c2c(C)noc2C)no1	22%
CCOc1cc(/C=C2\SC(=S)N(NS(=O)(=O)c3ccccc3)C2=O)ccc1O	-22%
O=C(c1cccs1)N1CCN(CCCc2ccccc2)CC1	11%
CCCCCn1c(N)c(-c2nc3ccccc3s2)c2c([N+](=O)[O-])nn(CC)c(=O)c21	1%
O=C(NCCC1=CCCCC1)c1ccc2c(c1)N(Cc1ccccc1)C(=O)CS2	-10%
Cn1cccc1C(=O)OCC(=O)Nc1cccc(S(=O)(=O)N2CCOCC2)c1	1%
Cn1cnnc1SCc1ccc(C#N)cc1Cl	-4%
CC1=C(C(=O)OC(C)C)C(C2CC=CCC2)NC(=O)N1 (configuration not stated)	2%
Cc1ccc(C(C)C)c(OCC(=O)NCC(c2cccs2)N2CCOCC2)c1 (configuration not stated)	-3%
O=C(Nc1ccccc1N1CCCC1)c1ccccc1Cl	15%
CCN(C(=O)COC(=O)c1sccc1C)c1c(N)n(Cc2ccccc2)c(=O)[nH]c1=O	1%
COc1cccc(CNC(=O)c2oc3c(c2C)-c2nn(Cc4cccc(Cl)c4)cc2CC3)c1OC	9%
O=C(O)c1nc2nc(Cl)c(Cl)nc2[nH]1	-19%
O=c1cc(N2CCCCC2)c(-c2ccccc2)nn1Cc1ccccc1Cl	10%
COc1ccc(Cn2nnnc2CN(Cc2cc3ccc(C)cc3[nH]c2=O)C2CCCC2)cc1	8%
CC1(C)CC(=O)C2=C(C1)NC(=S)C(C#N)C21CCCCC1 (configuration not stated)	?
O=C(NC1CCCCC1)C(c1cccs1)N(Cc1cccs1)C(=O)c1ccco1 (configuration not stated)	3%
O=C(NCCOc1ccccc1F)C1CC(=O)N(Cc2ccccc2)C1 (configuration not stated)	6%
CCOC(=O)c1c(NC(=O)COc2ccc(Br)cc2)sc(C(C)=O)c1C	-1%
Cc1ccc(-c2nc3ccccn3c2Nc2ccc3c(c2)OCCO3)s1	-7%
CCN=C(Nc1ccc2c(c1)OCO2)SC1CC(=O)N(c2ccc(OC)cc2)C1=O (configuration not stated)	6%
Nc1nc2c3ccccc3nc(Cc3ccccc3)n2n1	4%
CCc1ccc(-n2c(=O)c3sc4ccccc4c3n(CC(=O)NC3CCCCC3)c2=O)cc1	-2%
COc1ccc(/C=C/C(=O)OCC(=O)NC2CCCC2)cc1	-20%
Cc1cc(C(=O)Nc2ccc(N3CCOCC3)cc2)c2ccccc2n1	5%
O=C(CSc1n[nH]c(=O)[nH]c1=O)c1ccccc1[N+](=O)[O-]	-7%
COc1ccccc1C1=NN(C2=NN=C(N)Cc3ncnn32)C(O)(C(F)(F)F)C1 (configuration not stated)	-23%
CCCCn1c(SCC(=O)NCCCOC)nc2c(sc3ccccc32)c1=O	12%
Cc1ccc2scc(N3CCN(c4cccc(C(F)(F)F)c4)CC3)c(=O)c2c1	-5%
Cc1c(C(=O)Nc2c(C)n(C)n(-c3ccccc3)c2=O)oc2ccc(Cl)cc12	-6%

Molecules shown so far with an aryl thioether with sulfur outside any ring:
SMILES	VDR inh
Cc1c(C)n(C(=O)CSc2nc3ccccc3[nH]2)c2ccccc12	-9%
O=C(O)CCCC(=O)NCc1c(Cl)cccc1Sc1ccc(Cl)cc1	7%
Cc1ccc(Sc2nc(-c3ccccc3)ccc2C#N)cc1	5%
C[C@H](NC(=O)OC(C)(C)C)c1nnc(SCC(N)=O)o1	1%
COc1ccc(NC(=O)CSc2ccc3c4c(cccc24)C(=O)c2ccccc2-3)cc1	-3%
O=C1CC(c2cccc(O)c2)c2c(nc(SCc3ccccc3F)[nH]c2=O)N1 (configuration not stated)	16%
CC(C)(C)c1ccc(S(=O)(=O)c2cnc(SCC(=O)Nc3ccc4c(c3)OCCO4)[nH]c2=O)cc1	0%
CC(C)Cn1cnc2c(SCc3ccc(Cl)cc3)nc(N)nc21	-10%
N#CCCCSc1nnnn1-c1cc(C(F)(F)F)cc(C(F)(F)F)c1	3%
Cn1cnnc1SCc1ccc(C#N)cc1Cl	-4%
O=C(CSc1n[nH]c(=O)[nH]c1=O)c1ccccc1[N+](=O)[O-]	-7%
CCCCn1c(SCC(=O)NCCCOC)nc2c(sc3ccccc32)c1=O	12%

Following part.
SMILES	VDR inh
C=CCn1c(SCC(=O)NC2CCCCC2)nnc1-c1cccnc1	6%
Cc1cccc(-c2noc(CCC(=O)NCc3ccccc3)n2)c1	17%
CCn1cc(C(=O)OCC(=O)c2cc(C)n(-c3ccccc3)c2C)c(=O)c2ccc(C)nc21	-6%
CCCN(CCC)c1nc2c(C)cccn2c(=O)c1/C=C1/SC(=S)N(Cc2ccco2)C1=O	4%
Cc1ccc(CN2CCN(Cc3cnc(C)s3)CC2CCO)cc1 (configuration not stated)	0%
Fc1cccc(CN2CCc3nc(Nc4ccc5c(c4)OCCO5)ncc3C2)c1F	3%
COc1ccc(C(=O)/C=C/C(=O)N(CC(=O)NC2CCCCC2)Cc2ccccc2OC)c(O)c1	?
CC1CN(C(=O)c2nn(C)cc2[N+](=O)[O-])CC(C)O1 (configuration not stated)	-7%
Cc1cc(C)c(C)c(OCC(=O)NCCN(C)C)c1	5%
CCc1ccc(OCCCSc2nc(-c3ccc(C(C)(C)C)cc3)nc3cc(=O)[nH]n23)cc1	8%
O=C(Nc1ccc(O)cc1C(=O)O)c1ccc(NC(=O)c2ccco2)cc1	-4%
Cc1c(C(=O)OCCOc2ccccc2)[nH]c2c1C(=O)CC(c1ccccc1Cl)C2 (configuration not stated)	-19%
COc1ccc(NS(=O)(=O)c2cc(NC(=O)c3cncc(Br)c3)ccc2OC)cc1	13%
CCC[N+]1(CC#CC(O)(c2ccccc2)C2CCCCC2)CCCCC1 (configuration not stated)	-17%
O=C(CCS(=O)(=O)c1cccc2nonc12)Nc1ccc(Br)cc1	-30%&-6%
CCc1ccccc1NC(=O)CSc1nc2c(oc3ccccc32)c(=O)n1C	-3%
Cc1ccc(-c2noc(C3CCN(S(C)(=O)=O)CC3)n2)o1	12%
COc1ccccc1CNc1cc(-c2ccccc2)ccc1OC	-5%
COC(=O)c1ccsc1NC(=O)CCS(=O)(=O)c1ccc(Cl)cc1	1%
CCCOc1ccc(C2c3c(oc4ccccc4c3=O)C(=O)N2CCN(CC)CC)cc1OC (configuration not stated)	5%
Cc1c(NS(=O)(=O)c2cccc(C(=O)NCc3ccc(Cl)cc3)c2)c(=O)n(-c2ccccc2)n1C	-22%
O=C1NC(=Nc2ccccc2)SC1Cc1cccc(Cl)c1Cl (configuration not stated)	-3%
CC(=O)c1cccc(Oc2ncccn2)c1	-6%
O=C(CN1C(=O)C2(OCCO2)c2ccccc21)c1ccc(F)cc1	14%
O=C(NC1CCCC1)C(c1c(F)cccc1Cl)N(C(=O)c1csnn1)C1CC1 (configuration not stated)	-17%
N/C(Cc1cccc2ccccc12)=N\OC(=O)c1cccs1	-18%
O=C(NCCS(=O)(=O)N1CCN(c2cccc(Cl)c2)CC1)c1cc(=O)c2ccccc2o1	10%&12%
Cc1cc(=O)[nH]c(SCC(=O)Nc2c(C)n(C)n(-c3ccccc3)c2=O)c1C#N	-6%
CN1C(=S)SC(N(O)C=C2C=CC(=O)C=C2)C1(C)C (configuration not stated)	4%

The list is partial. The share of hits here may be higher or lower than overall.
